Yeast UUG start = modulators of start codon recognition fidelity in yeast | AID 602363 | actives 0.13% (n = 350,000) | activity score, % at 18.7 µM | S. cerevisiae UUG-firefly luciferase reporter, luminescence/redox ratio;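 active = replicate mean at a twofold rise or more, about +100% in these data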;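 note: firefly luciferase made from a UUG start codon reports start codon fidelity; reporter light over untreated wells divided by growth signal over untreated wells; some hits fall short of that in this replicate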
* hit, by the source's call. Only part of the results is shown. The share of hits here may be higher or lower than overall.

SMILES | Yeast UUG start
CO[C@@H]1CN(C)C(=O)c2ccc(NS(=O)(=O)c3ccccc3)cc2OC[C@@H](C)N(Cc2ccccn2)C[C@@H]1C | -8
CC(C)NC(=O)N(C)C[C@H]1OCc2ccccc2-c2c(n(C)c3ccccc23)C(=O)N([C@@H](C)CO)C[C@@H]1C | -10
COc1ccc(NC(=O)N(C)C[C@@H]2Oc3c(NC(=O)c4cnccn4)cccc3C(=O)N([C@H](C)CO)C[C@@H]2C)cc1 | 4
COc1cccc(-c2ccc3c(c2)[C@@H]2[C@@H](CCN2C(=O)c2ccccn2)[C@@H](CO)N3C)c1 | -13
Cc1ccc(S(=O)(=O)N2C[C@H](O)COC[C@@H]3O[C@@H](CC(=O)NCCN4CCCCC4)CC[C@H]32)cc1 | -10
Cc1cc(C(=O)Nc2cccc3c2O[C@@H](CN(C)C(=O)Nc2ccccc2)[C@@H](C)CN([C@@H](C)CO)C3=O)n(C)n1 | -12
CC(C)NC(=O)N1[C@H](CO)[C@@H]2c3ccccc3N(C(=O)c3ccc(F)cc3)C[C@@H]21 | 8
CN(C)C(=O)c1cccc(-c2ccc3c(c2)[C@@H]2[C@@H](CCN2S(=O)(=O)c2cn(C)cn2)[C@@H](CO)N3)c1 | -7
COc1ccc(CN(C)C[C@@H]2Oc3ccc(NC(=O)NC(C)C)cc3CC(=O)N([C@H](C)CO)C[C@@H]2C)cc1 | 11
CC(=O)N1[C@@H]2CN(S(=O)(=O)c3cccc(C)c3)c3ccccc3[C@@H]2[C@@H]1CO | -5
O=C(C1CCC1)N1C[C@@H]2[C@H](c3ccccc31)[C@H](CO)N2C(=O)c1ccccc1 | 54
C[C@H]1CN([C@@H](C)CO)C(=O)c2cc(NC(=O)Nc3cccc4ccccc34)ccc2O[C@@H]1CN(C)C(=O)Nc1ccc(C(F)(F)F)cc1 | 16
C[C@@H]1CN([C@H](C)CO)C(=O)c2cccc(NC(=O)C3CCCCC3)c2O[C@H]1CN(C)C(=O)Nc1ccc(C(F)(F)F)cc1 | 3
O=C(Nc1cccc(F)c1)N1C[C@H]2[C@@H](c3ccccc31)[C@H](CO)N2C(=O)c1cccnc1 | -9
C[C@H](CO)N1C[C@H](C)[C@@H](CN(C)Cc2ccc(C(=O)O)cc2)Oc2ccc(NC(=O)CCC(F)(F)F)cc2C1=O | -11
COCCN(C[C@H]1N[C@H](CO)[C@@H]1c1ccc(-c2cccc(F)c2)cc1)C(C)=O | -1
C[C@@H]1CN([C@@H](C)CO)C(=O)Cc2cc(NS(=O)(=O)c3ccc(Cl)cc3)ccc2O[C@H]1CN(C)C | -2
O=C(c1ccccn1)N1C[C@H]2[C@@H](c3ccccc31)[C@@H](CO)N2C(=O)CC1CC1 | -12
O=C(C[C@@H]1C[C@@H]2c3cc(NC(=O)CC4CC4)ccc3O[C@@H]2[C@H](CO)O1)NCc1cccnc1 | -13
O=C(Nc1cccc(F)c1)N1C[C@H]2[C@@H](c3ccccc31)[C@H](CO)N2C(=O)c1ccccn1 | 3
CC(=O)N1[C@H](C(=O)NCc2ccccc2Cl)[C@@H](CO)[C@@H]2Cn3c(ccc(-c4ccncc4)c3=O)[C@@H]21 | -6
C[C@@H]1CN([C@@H](C)CO)C(=O)c2cc(NS(=O)(=O)c3cccs3)ccc2O[C@@H]1CN(C)Cc1ccc(-c2ccccc2)cc1 | 3
CO[C@@H]1CN(C)C(=O)c2ccc(NC(=O)Nc3ccccc3)cc2OC[C@@H](C)N(C(=O)CN(C)C)C[C@@H]1C | -13
COc1ccc(CN(C)C[C@@H]2Oc3ccc(NC(=O)Nc4ccc(OC)cc4)cc3CC(=O)N([C@@H](C)CO)C[C@@H]2C)cc1 | 22
C[C@@H]1CN([C@H](C)CO)C(=O)c2cc(NS(=O)(=O)c3ccccc3)ccc2O[C@H]1CN(C)S(C)(=O)=O | -13
O=C(Nc1cccc(F)c1)N1CCCCN2[C@H](CO)[C@@H](c3ccc(C#CC4CC4)cc3)[C@H]2C1 | 3
CN(C)C(=O)c1cccc(-c2ccc([C@H]3[C@H](CO)N4CCCCN(S(C)(=O)=O)C[C@@H]34)cc2)c1 | -8
COCC(=O)Nc1ccc2c(c1)C(=O)N(C)C[C@@H](OC)[C@H](C)CN(CC1CC1)[C@@H](C)CO2 | 0
C[C@@H]1CN([C@H](C)CO)C(=O)c2cccc(NC(=O)C3CCCCC3)c2O[C@@H]1CN(C)C(=O)Nc1ccc2c(c1)OCO2 | 1
CO[C@H]1CN(C)C(=O)c2ccc(NC(=O)C3CC3)cc2OC[C@@H](C)N(Cc2ccccc2)C[C@H]1C | 5
C[C@@H]1CN([C@@H](C)CO)C(=O)c2cccc(NC(=O)Nc3ccc(F)cc3)c2O[C@@H]1CN(C)Cc1ccc(C(=O)O)cc1 | -12
CC=Cc1ccc2n(c1=O)C[C@H]1[C@H](CO)[C@@H](C(=O)NCC)[C@@H]2N1C(=O)Nc1cc(F)ccc1F (mixture of isomers) | 19
O=C(C[C@H]1CC[C@@H]2[C@H](COC[C@@H](O)CN2C(=O)c2ccccc2)O1)NCc1cccc(F)c1 | 5
CCC(=O)N1CC[C@@H]2[C@@H](CO)N(C)c3ccc(-c4ccc(F)cc4)cc3[C@@H]21 | 9
C/C=C/c1ccc([C@H]2[C@H](CO)N3CCCCN(C(=O)Nc4ccc(OC)cc4)C[C@@H]23)cc1 | 17
CCC(=O)NC[C@@H]1[C@H](c2ccccc2)[C@@H](CO)N1C(=O)C1CCC1 | 4
N#Cc1cccc(-c2ccc([C@@H]3[C@H]4CN(C(=O)Nc5cccc(F)c5)CCCCN4[C@H]3CO)cc2)c1 | -1
O=C(NC[C@H]1[C@@H](c2ccccc2)[C@H](CO)N1CC1CCCC1)c1cccnc1 | -9
COc1ccc(NC(=O)Nc2ccc3c(c2)CC(=O)N([C@@H](C)CO)C[C@H](C)[C@@H](CN(C)C(=O)Nc2ccc(F)cc2)O3)cc1 | -13
O=C(Nc1ccccc1)N1CCCCN2[C@@H](CO)[C@H](c3ccc(C#Cc4ccccc4)cc3)[C@@H]2C1 | 2
CN1CCN(C(=O)[C@@H]2[C@@H](CO)[C@@H]3Cn4c(ccc(-c5cncnc5)c4=O)[C@@H]3N2CC2CCCC2)CC1 | -7
Cc1noc(C)c1NC(=O)N(C)C[C@H]1Oc2c(NC(=O)c3ccncc3)cccc2C(=O)N([C@H](C)CO)C[C@H]1C | -4
O=C(c1cccnc1)N1C[C@H]2[C@@H](c3ccccc31)[C@@H](CO)N2CC1CCCCC1 | 36
Cc1noc(C)c1NC(=O)N(C)C[C@@H]1Oc2ccc(NS(=O)(=O)c3cn(C)cn3)cc2C(=O)N([C@@H](C)CO)C[C@@H]1C | -7
CCCNC(=O)C[C@@H]1C[C@@H]2c3cc(NC(=O)Nc4ccc(OC)cc4)ccc3O[C@@H]2[C@@H](CO)O1 | -7
Cc1noc(C)c1NC(=O)Nc1ccc2c(c1)C(=O)N([C@H](C)CO)C[C@H](C)[C@H](CN(C)C(=O)NC(C)C)O2 | -9
C[C@@H]1CN([C@@H](C)CO)C(=O)c2cccc(NC(=O)C3CCCCC3)c2O[C@H]1CN(C)Cc1ccncc1 | -18
C[C@H](CO)N1C[C@H](C)[C@H](CN(C)C(=O)Nc2ccc3c(c2)OCO3)Oc2ccc(NC(=O)Cn3cnnn3)cc2C1=O | 11
CO[C@@H]1CN(C)C(=O)c2ccc(NC(=O)C3CC3)cc2OC[C@H](C)N(C(=O)C2CCOCC2)C[C@H]1C | -5
CCC(=O)N1[C@H](CO)[C@@H](c2ccccc2)[C@@H]1CN(C)C(=O)c1cccc(F)c1 | -4
C[C@H]1CN([C@@H](C)CO)C(=O)Cc2cc(NC(=O)CCC(F)(F)F)ccc2O[C@H]1CN(C)CC1CCCCC1 | 0
O=C(Nc1ccccc1F)N1[C@H](CO)[C@H]2c3ccccc3NC[C@H]21 | -3
O=C(Nc1ccc(F)cc1)N1[C@@H](CO)[C@@H]2c3ccccc3NC[C@@H]21 | -7
COc1cccc(C(=O)Nc2ccc3c(c2)C(=O)N(C)[C@H]2CC[C@@H](CC(=O)NCc4ccccc4F)O[C@H]2CO3)c1 | -1
Cc1ccc(S(=O)(=O)Nc2ccc3c(c2)C(=O)N([C@@H](C)CO)C[C@H](C)[C@@H](CN(C)Cc2ccc4c(c2)OCO4)O3)cc1 | -3
CN(C)CC#Cc1ccc([C@@H]2[C@H]3CN(CC4CC4)CCCCN3[C@H]2CO)cc1 | 9
O=C(C1CCCC1)N1C[C@@H]2[C@H](c3ccccc31)[C@@H](CO)N2C(=O)c1ccccc1F | 5
COCC(=O)Nc1ccc2c(c1)C(=O)N(C)C[C@H](OC)[C@@H](C)CN(CC1CC1)[C@H](C)CO2 | 5
CN(C)CC#Cc1ccc([C@H]2[C@H]3CN(C(=O)CN(C)C)CCCCN3[C@H]2CO)cc1 | 21
CC(=O)N1CCCCN2[C@H](CO)[C@@H](c3ccc(Br)cc3)[C@@H]2C1 | -5

New compounds follow.
SMILES | Yeast UUG start
C[C@@H]1CN([C@@H](C)CO)C(=O)Cc2cc(NC(=O)Nc3cccc4ccccc34)ccc2O[C@@H]1CN(C)C | -13
O=C(C1CCCC1)N1C[C@H]2[C@@H](c3ccccc31)[C@@H](CO)N2C(=O)Nc1cccc(F)c1 | 18
C/C=C/c1ccc([C@H]2[C@@H](CO)N(C(C)=O)[C@@H]2CN(CC)C(=O)CN(C)C)cc1 | 1
CO[C@@H]1CN(C)C(=O)c2ccc(NC(C)=O)cc2OC[C@H](C)N(Cc2ccc(F)cc2)C[C@@H]1C | 0
CO[C@@H]1CN(C)C(=O)c2cc(NC(=O)c3ccc(-c4ccccc4)cc3)ccc2OC[C@@H](C)NC[C@@H]1C | 9
CCCC#Cc1ccc([C@@H]2[C@@H](CO)N3CCCCN(S(=O)(=O)c4ccccc4F)C[C@H]23)cc1 | 28
COc1ccc(NC(=O)N(C)C[C@@H]2Oc3ccc(NS(C)(=O)=O)cc3C(=O)N([C@@H](C)CO)C[C@@H]2C)cc1 | 5
CN(C)C(=O)c1cccc(-c2ccc3c(c2)[C@@H]2[C@@H](CCN2S(=O)(=O)c2ccccc2)[C@@H](CO)N3)c1 | -6
CN1CCN(C(=O)C[C@H]2CC[C@H]3[C@@H](COC[C@H](O)CN3Cc3ccc4c(c3)OCO4)O2)CC1 | -1
O=C(Nc1cc(F)ccc1F)N1CCCCN2[C@H](C1)[C@H](c1ccc(-c3ccncc3)cc1)[C@@H]2CO | 3
CNC[C@H]1Oc2ccc(NC(=O)NC3CCCCC3)cc2C(=O)N([C@H](C)CO)C[C@@H]1C | 4
C[C@H](CO)N1C[C@H](C)[C@@H](CN(C)C)Oc2ccc(NC(=O)Nc3ccc(C(F)(F)F)cc3)cc2CC1=O | 7
O=C(Cc1ccccc1)N1CC[C@@H]2[C@H]1c1cc(Br)ccc1N[C@@H]2CO | 7
C[C@H](CO)N1C[C@H](C)[C@H](CN(C)Cc2ccc(C(F)(F)F)cc2)Oc2c(NC(=O)Nc3ccc(F)cc3)cccc2C1=O | 14
CO[C@@H]1CN(C)C(=O)c2ccc(NC(=O)C3CCC3)cc2OC[C@@H](C)N(S(=O)(=O)c2ccc(Cl)cc2)C[C@H]1C | 9
CCC(=O)NC[C@H]1[C@H](c2ccc(-c3ccccc3)cc2)[C@H](CO)N1C(=O)C1CC1 | -5
CO[C@@H]1CN(C)C(=O)c2ccc(NC(=O)C3CC3)cc2OC[C@H](C)N(C)C[C@@H]1C | -3
C[C@H](CO)N1C[C@H](C)[C@H](CN(C)S(=O)(=O)c2cccs2)Oc2c(NS(C)(=O)=O)cccc2C1=O | 3
O=C(CC(F)(F)F)N1C[C@H]2[C@@H](c3ccccc31)[C@H](CO)N2C(=O)C1CCCC1 | 16
OC[C@@H]1[C@@H](c2ccc(-c3cccc(F)c3)cc2)[C@H]2CN(CCC(F)(F)F)CCCCN12 | -12
O=C(C[C@@H]1CC[C@@H]2[C@H](COC[C@@H](O)CN2Cc2ccccc2F)O1)N[C@@H]1CCN(Cc2ccccc2)C1 | 1
C[C@H]1CN([C@@H](C)CO)C(=O)c2cc(NS(=O)(=O)c3ccccc3)ccc2O[C@H]1CN(C)Cc1ccc(C(F)(F)F)cc1 | 33
CC(C)CC#Cc1ccc([C@H]2[C@H](CO)N3CCCCN(C(=O)NC4CCCC4)C[C@@H]23)cc1 | 10
C[C@@H]1CN([C@H](C)CO)C(=O)c2cc(NC(=O)Cc3cn(C)c4ccccc34)ccc2O[C@@H]1CN(C)C(=O)Nc1ccc(F)cc1 | 7
C[C@@H](O)C#Cc1ccc([C@@H]2[C@@H](CO)N3CCCCN(C(=O)c4ccncc4)C[C@H]23)cc1 | -10
C[C@H](CO)N1C[C@H](C)[C@H](CN(C)Cc2ccc(C(=O)O)cc2)Oc2ccc(NC(=O)c3ccncc3)cc2C1=O | -8

Molecules from the list above that contain an aryl methoxy group (nine):
SMILES | Yeast UUG start
COc1ccc(NC(=O)N(C)C[C@@H]2Oc3c(NC(=O)c4cnccn4)cccc3C(=O)N([C@H](C)CO)C[C@@H]2C)cc1 | 4
COc1cccc(-c2ccc3c(c2)[C@@H]2[C@@H](CCN2C(=O)c2ccccn2)[C@@H](CO)N3C)c1 | -13
COc1ccc(CN(C)C[C@@H]2Oc3ccc(NC(=O)NC(C)C)cc3CC(=O)N([C@H](C)CO)C[C@@H]2C)cc1 | 11
COc1ccc(CN(C)C[C@@H]2Oc3ccc(NC(=O)Nc4ccc(OC)cc4)cc3CC(=O)N([C@@H](C)CO)C[C@@H]2C)cc1 | 22
C/C=C/c1ccc([C@H]2[C@H](CO)N3CCCCN(C(=O)Nc4ccc(OC)cc4)C[C@@H]23)cc1 | 17
COc1ccc(NC(=O)Nc2ccc3c(c2)CC(=O)N([C@@H](C)CO)C[C@H](C)[C@@H](CN(C)C(=O)Nc2ccc(F)cc2)O3)cc1 | -13
CCCNC(=O)C[C@@H]1C[C@@H]2c3cc(NC(=O)Nc4ccc(OC)cc4)ccc3O[C@@H]2[C@@H](CO)O1 | -7
COc1cccc(C(=O)Nc2ccc3c(c2)C(=O)N(C)[C@H]2CC[C@@H](CC(=O)NCc4ccccc4F)O[C@H]2CO3)c1 | -1
COc1ccc(NC(=O)N(C)C[C@@H]2Oc3ccc(NS(C)(=O)=O)cc3C(=O)N([C@@H](C)CO)C[C@@H]2C)cc1 | 5

High-throughput results from PubChem.
